Bioassay records from PubChem BioAssay.
GLA inh pH 4.5 = blocks human alpha-galactosidase A at pH 4.5. P06280. purified enzyme, 4-MU-alpha-Gal fluorescence, pH 4.5. activity change, negative = inhibition, % at 105 µM. 230,000 tested, under 10 active. AID 1467; inconclusive = small, poorly fitted or top-dose-only inhibition, or a rising curve; inactive = flat fitted curve, though single readings scatter; no compound was filed as active;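 also: 0% = full activity with enzyme and -100% = basal without enzyme; dose as in the result columns while the protocol names 77 µM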
Target sequence (P06280 whole entry, looked up): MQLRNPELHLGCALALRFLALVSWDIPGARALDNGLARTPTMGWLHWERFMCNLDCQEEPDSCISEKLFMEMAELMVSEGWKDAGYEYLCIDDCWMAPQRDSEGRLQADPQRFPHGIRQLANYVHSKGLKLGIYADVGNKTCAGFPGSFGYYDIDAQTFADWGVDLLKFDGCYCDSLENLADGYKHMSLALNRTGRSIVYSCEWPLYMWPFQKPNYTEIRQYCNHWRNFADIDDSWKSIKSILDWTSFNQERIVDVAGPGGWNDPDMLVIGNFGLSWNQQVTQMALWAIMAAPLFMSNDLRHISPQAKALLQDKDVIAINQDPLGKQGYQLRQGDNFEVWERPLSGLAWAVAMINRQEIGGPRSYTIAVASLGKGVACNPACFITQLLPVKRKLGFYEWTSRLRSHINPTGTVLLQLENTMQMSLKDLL
Rango dissoc inh = inhibitors of RanGTP-induced Rango-importin beta complex dissociation. O95149+P62826. Biochemical FRET Rango-importin beta, RanGTP-induced dissociation. Potency, µM (titrated, usually from 46.1 µM), inactives show at the highest dose activity change, negative = inhibition. 340,000 compounds, 0.071% hits. AID 540253; active means falling FRET ratio curve, often poorly fitted, with flat reads before Ran was added; inconclusive means other falling curves, or compound fluorescence or quenching; inactive means flat or rising ratio curve;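 also: potency is read from the fitted curve at half-maximal effect; % of control where 0% means no effect; nearly all actives have a fitted effect of over 45% in size; -100% = wells without RanGTP and RCC1; the record marks most hits as doubtful in a second field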
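Rango FRET biosensor (snurportin-1 IBB flanked by N-terminal EYFP and C-terminal CFP10) at 0.1 uM, with 0.25 uM importin beta in PBS, 1mM DTT, 0.02% Tween-20, 0.1% BSA. 0.6 uM Ran, 2mM GTP and 0.2 uM RCC1 were then added for 45 min at room temperature. Inhibition read as loss of FRET rise.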
Rango complex inh = Rango-importin beta binding inhibition | Rango CFP/YFP FRET sensor + importin beta, 45 min | 340,000 compounds, 0.031% hits | Potency, µM (top dose mostly 92.2 µM), for inactives: top-dose inhibition of complex formation; active = rising FRET ratio curve, often small or poorly fitted; inconclusive = mostly compound fluorescence or quenching in the first reads; inactive = flat curves in all reads;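 also: potency is read from the fitted curve at half-maximal effect; 0% = DMSO wells and 100% = buffer wells lacking importin beta; nearly all actives have a fitted effect of over 15% in size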
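FRET biosensor (snurportin 1 IBB flanked by EYFP and cerulean), 50 nM, with compound 5 min, then 0.125 microM importin beta in PBS, 1 mM DTT, 0.02% Tween-20, 0.1% BSA. CFP/YFP ratio read after 45 min at room temperature; pre-read flags interference.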
miR-21 FLuc = miR-21 reporter, rising signal. HeLa miR-21 FLuc reporter, luciferase, 48 h. Potency, µM (doses to about 38.3 µM), for the others: at the highest dose reporter change, positive = more light. 340,000 tested, under 10 active. AID 2288; active = well fitted rising curve with a large enough effect; inconclusive = small, poorly fitted or top-dose-only effect; inactive = no such curve, though single readings can be large or run the other way;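 also: % of control where 0% means no effect; miR-21 action dims this reporter so a rising signal means less miR-21 action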
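Luminescence from a firefly luciferase reporter carrying a miR-21 binding site downstream, stably expressed under a CMV promoter in HeLa cells that make miR-21 endogenously, reports miRNA modulation after 48 h compound exposure up to approximately 40uM final.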
* = called active by the depositor; ? = inconclusive; . = no result given; & = joins results of further samples.

| molecule | GLA inh pH 4.5 | Rango dissoc inh | Rango complex inh | miR-21 FLuc |
| --- | --- | --- | --- | --- |
| CCOC(=O)c1c(-c2ccc(F)cc2)cn2ccccc12 | 1 | -19% | 0.8% | -7% |
| Cc1ccc(S(=O)(=O)CCC(=O)Nc2ccccc2C)cc1 | . | ? | 3.9% | -1% |
| COCCNCC(=O)NCC12CC3CC(CC(C3)C1)C2 | 1 | -7% | 0.1% | -8% |
| O=C(CN1C(=O)NC(Cc2c[nH]c3ccccc23)C1=O)Nc1cccc(S(=O)(=O)N2CCCCCC2)c1 (centres undefined) | -18 | 29% | 0.0% | 20% |
| Cc1c(C(=O)Nc2ccc(Nc3ccccc3)cc2)cccc1[N+](=O)[O-] | . | -15% | -3.6% | 17% |
| Cc1cccc(N(CC(=O)Nc2ccc(F)cc2)S(C)(=O)=O)c1 | 1 | -16% | 4.9% | -2% |
| C=CCSc1nc(Oc2ccccc2)c2sccc2n1 | -7 | -12% | -0.8% | -16% |
| Cc1ccc(C(CC(=O)NCc2ccco2)c2ccc(OC(C)C)cc2)cc1 (centres undefined) | -8 | 0% | -0.4% | 14% |
| C=CCNC(=O)c1ccccc1NS(=O)(=O)c1ccccc1 | 5 | -6% | -1.2% | -6% |
| O=C(Nc1ncc(S(=O)(=O)c2ccc([N+](=O)[O-])cc2)s1)c1ccc2ccccc2c1 | 1 | 16% | -0.2% | -7% |
| O=C(NC1=NCCS1)c1cccc(S(=O)(=O)N2CCCCC2)c1 | -10 | . | . | -7% |
| OC(COc1ccc(OCC(O)CN2CCCCCC2)cc1)CN1CCCCCC1 (centres undefined) | 4 | -2% | -0.7% | -17% |
| COc1ccc(OC)c(S(=O)(=O)Nc2cccc(C(C)=O)c2)c1 | -3 | 12% | 1.9% | -3% |
| CCn1c(CC(=O)Nc2ccccc2)nnc1SCc1nc2ccccc2c(=O)[nH]1 | 2 | -20% | -1.3% | 4% |
| O=C(Nc1nnc(C2=COCCO2)o1)c1ccc(Cc2ccccc2)cc1 | 2 | 0% | -1.1% | -1% |
| Cc1nn(C)c(C)c1S(=O)(=O)N(CC(=O)N1CCc2ccccc2C1)c1ccc(C(C)C)cc1 | -12 | -4% | -0.8% | -2% |
| CCOC(=O)/C=c1\s/c(=C\c2ccccc2C)c(=O)n1CC(=O)NCc1ccc2c(c1)OCO2 | -10 | ? | ? | 19% |
| COc1ccc(CC(=O)Nc2cccnc2)cc1 | . | 13% | 1.1% | -1% |
| O=C(N/N=C/c1ccc(F)cc1)c1ccc(Br)cc1 | -20 | -3% | 4.4% | -36% |
| O=C(N/C=N/OCc1ccc(Cl)cc1Cl)NOCc1ncc(C(F)(F)F)cc1Cl | -5 | -10% | 0.8% | 1% |
| O=C(NCc1ccc(F)cc1)c1ccc(CS(=O)(=O)c2ccc(Br)cc2)o1 | -6 | 5% | -1.0% | 19% |
| CCOc1ccc2nc(/N=C/c3nc(-c4ccccc4)oc3O)sc2c1 | 2 | ? | ? | -10% |
| C=CCn1c(SCCOc2ccccc2)nnc1C(C)NC(=O)c1ccccc1 (centres undefined) | 8 | -10% | -1.3% | 2% |
| O=C(Nc1ccc(F)cc1)Nc1nnc(-c2ccccc2)o1 | -5 | 1% | 0.9% | 3% |
| CN(c1ccc(C(=O)N2CCCCC2)cc1)S(C)(=O)=O | 3 | -13% | -2.1% | -1% |
| Cc1cc([N+](=O)[O-])nn1CCCC(=O)Nc1sc2c(c1C(N)=O)CCCC2 | 3 | 10% | -0.7% | -12% |
| O=S(=O)(Nc1ncnc2sc3c(c12)CCC3)c1cc(F)ccc1F | 2 | 15% | 0.3% | 3% |
| CC1CCN(S(=O)(=O)c2ccc3c(c2)CCN3C(=O)CCC(=O)O)CC1 | 1 | 1% | 3.0% | -2% |
| N#CCC(=O)NNC(=S)Nc1ccccc1C(F)(F)F | 5 | -17% | ? | 7% |
| CC1CCCN(CCCNC(=O)c2cc3c(s2)-c2ccccc2OC3)C1 (centres undefined) | . | -7% | 0.0% | ? |
| CCN(CC)C(=O)CSc1nnc(-c2ccccc2)n1-c1ccccc1 | 7 | 4% | 0.5% | 1% |
| CC(C)CC(=O)NC(=S)Nc1ccc(S(=O)(=O)N2CCN(C)CC2)cc1 | -2 | 2% | -3.8% | -4% |
| CCOc1ccc(NS(=O)(=O)c2cc(NC(=O)CCC(=O)c3cccs3)ccc2Cl)cc1 | -5 | 3% | -0.2% | -8% |
| Cc1oc(-c2cccs2)nc1CNC[C@H]1O[C@@H](n2cnc3c(N)ncnc32)[C@H](O)[C@@H]1O | . | -7% | 6.1% | . |
| O=C(NC(=S)NC1CCSC1=O)c1ccccc1Cl (centres undefined) | 2 | 5% | -2.8% | -2% |
| COc1ccccc1CNC(=O)C(=O)NCC1OCCN1S(=O)(=O)c1cccs1 (centres undefined) | 2 | -2% | -0.9% | -1% |
| COc1ccc([N+](=O)[O-])cc1/C=N/NC(=O)/C(=C\c1cccs1)NC(=O)c1ccccc1 | -6 | 14% | -0.3% | 9% |
| Cc1cc(-c2n[nH]c(=S)n2-c2ccccc2C)cs1 | 0 | 11% | 4.9% | -23% |
| Cc1cccc(N(C)S(=O)(=O)c2cc3c(cc2C)n(C)c(=O)c(=O)n3C)c1 | . | -17% | -2.4% | 0% |
| Cc1ccc(C(=O)O/N=C/c2ccc3c(c2)OCO3)cc1 | -6 | -6% | -3.5% | 0% |
| O=C(Nc1c2c(nn1-c1ccccc1)CS(=O)C2)c1ccco1 (centres undefined) | . | -19% | 2.3% | -2% |
| CC1CCCCC1NC(=O)COC(=O)c1ccc([N+](=O)[O-])o1 (centres undefined) | . | -7% | ? | . |
| CCS(=O)(=O)N1Cc2ccccc2CC1C(=O)Nc1ccc(OC)cc1OC (centres undefined) | . | 4% | 3.8% | -9% |
| CCN(CC(=O)NC1CCCC1)S(=O)(=O)c1ccc(F)cc1 | . | 30% | -2.8% | -1% |
| O=C(COc1ccc(F)cc1)c1ccc2c(c1)CCCC2 | . | 3% | 2.6% | . |
| COc1cccc(NC(=O)c2cc(-c3ccco3)nc3ccccc23)c1 | . | 1% | 2.0% | . |
| CCN(CC)c1ccc(C2C(C(C)=O)C(=O)CC(C)(O)C2C(C)=O)cc1 (centres undefined) | . | -5% | 2.6% | . |
| CC(=O)c1ccc(NC(=O)NNS(=O)(=O)c2ccc([N+](=O)[O-])cc2)cc1 | . | 3% | 3.9% | -2% |
| COc1ccc(NC(=S)NCCCN2CCN(C3CCCCC3)CC2)cc1 | -11 | 44% | 6.5% | -10% |
| CCOC(=O)C1=CNS(=O)(=O)NC1c1cccc(O)c1 (centres undefined) | . | 0% | 2.3% | . |

Some of the entries above in another layout.
Every second line gives: GLA inh pH 4.5, Rango dissoc inh, Rango complex inh, miR-21 FLuc
- Cc1nn(C)c(C)c1S(=O)(=O)N(CC(=O)N1CCc2ccccc2C1)c1ccc(C(C)C)cc1
    -12, -4%, -0.8%, -2%
- CCOC(=O)/C=c1\s/c(=C\c2ccccc2C)c(=O)n1CC(=O)NCc1ccc2c(c1)OCO2
    -10, ?, ?, 19%
- COc1ccc(CC(=O)Nc2cccnc2)cc1
    ., 13%, 1.1%, -1%
- O=C(N/N=C/c1ccc(F)cc1)c1ccc(Br)cc1
    -20, -3%, 4.4%, -36%

The list continues:
| molecule | GLA inh pH 4.5 | Rango dissoc inh | Rango complex inh | miR-21 FLuc |
| --- | --- | --- | --- | --- |
| CNC(=O)c1c(C)nc(SCC(=O)NCc2ccc(OC)cc2)c(C#N)c1-c1ccco1 | -9 | 4% | -0.1% | -7% |
| O=S(=O)(c1ccc2c(c1)C(=NO)c1cc(S(=O)(=O)N3CCCCC3)ccc1-2)N1CCCCC1 | 3 | -1% | 3.2% | ? |
| COc1cc(OC)cc(C(=O)N[C@H](C(=O)NCc2ccccc2)C(C)C)c1 | . | -12% | 5.3% | -2% |
| O=c1ccn(-c2cccc(C(F)(F)F)c2)nc1-c1ccn(-c2ccccc2)n1 | -5 | -4% | 3.7% | 2% |
| CCN(CC)S(=O)(=O)c1cccc(S(=O)(=O)c2cccc(S(=O)(=O)N(CC)CC)c2)c1 | 12 | 1% | 0.5% | 22% |
| O=C(NCC1CCCO1)C(c1ccc(F)cc1)N(Cc1ccc2c(c1)OCO2)C(=O)c1ccc(CN2CCOCC2)o1 (centres undefined) | 5 | 7% | 0.2% | 1% |
| CCCCC(=O)Nc1ncc([N+](=O)[O-])s1 | -11 | 39% | 0.0% | -7% |
| COc1cccc(CNC(=O)CCC2CCCN(C(=O)CCn3cncn3)C2)c1 (centres undefined) | 8 | 17% | 3.1% | 0% |
| CCN(CC)c1ccc(/C=N/NC(=O)OC(C)(C)C)cc1 | 0 | -8% | 0.5% | -36% |
| CCC(=O)N1CCc2cc(S(=O)(=O)CCC(=O)NCCc3ccc(OC)c(OC)c3)ccc21 | -4 | 5% | -4.2% | 0% |
| O=C(COC(=O)c1cc(=O)[nH]c2ccccc12)Nc1cccc(S(=O)(=O)N2CCOCC2)c1 | -26 | -6% | 0.7% | 1% |
| C=CCN1c2ccccc2[C@]23C[C@@H](C(=O)OC)N(C(=O)CC(C)C)C2=NC(C(=O)OC)=C(C(=O)OC)[C@H]13 | 8&-5 | -19% | -2.4% | 15% |
| CCN(CC)S(=O)(=O)c1ccc2c(c1)oc(=O)n2CC(=O)NC1CCCCC1 | . | 0% | 0.4% | -3% |
| CCOC(=O)C(C)Sc1nc2c(cnn2-c2ccc(C)cc2)c(=O)[nH]1 (centres undefined) | 5 | 9% | -1.9% | -4% |
| COc1ccc(CC(=O)N2CCC(Nc3nc4ccccc4n3Cc3ccc(F)cc3)CC2)cc1 | -9 | 16% | -3.2% | -8% |
| CCC(CC)C(=O)N1N=C(c2ccc(NS(C)(=O)=O)cc2)CC1c1ccc(C)cc1 (centres undefined) | ? | -1% | -2.8% | 12% |
| CC(=O)N1c2ccc(S(=O)(=O)N3CCC(C(=O)NCc4ccc(Cl)cc4)CC3)cc2CC1C (centres undefined) | . | -9% | 1.9% | 17% |
| COc1ccc(OC)c(S(=O)(=O)N2CCN(C(=O)NC3CCCCC3)CC2)c1 | . | -13% | 4.7% | . |
| COc1ccc(CCNC(=O)N[C@@H](Cc2ccccc2)C(=O)O)cc1 | . | -7% | 0.4% | -1% |
| CCn1c(SCc2ccc(C#N)cc2)nnc1-c1cccc(Cl)c1 | -8 | 2% | 7.9% | 0% |
| COc1ccc(CCC(=O)NCCCNC(=O)CCc2ccc(OC)cc2)cc1 | -1 | -6% | 0.2% | -3% |
| O=C1CC(c2ccccc2)CC(=O)C1Sc1ccc(Cl)cc1 (centres undefined) | -2 | -7% | -1.3% | -9% |
| Cc1ccc(S(=O)(=O)Oc2ccc(/C=C3\C(=N)N4N=C(S(C)(=O)=O)SC4=NC3=O)cc2)cc1 | . | 12% | -0.5% | 2% |
| O=C(NCc1ccccc1)C1CCN(C(=O)NCc2ccccc2)CC1 | 3 | 2% | 0.6% | -5% |
| O=C(COc1ccc([N+](=O)[O-])cc1)NNC(=S)NC(=O)c1ccc(Br)cc1 | 0 | 1% | 2.6% | 0% |

The closing two entries of the section above are carried over, then new ones follow.
| molecule | GLA inh pH 4.5 | Rango dissoc inh | Rango complex inh | miR-21 FLuc |
| --- | --- | --- | --- | --- |
| O=C(NCc1ccccc1)C1CCN(C(=O)NCc2ccccc2)CC1 | 3 | 2% | 0.6% | -5% |
| O=C(COc1ccc([N+](=O)[O-])cc1)NNC(=S)NC(=O)c1ccc(Br)cc1 | 0 | 1% | 2.6% | 0% |
| O=C(CC1CCCCC1)Nc1c2c(nn1-c1ccc(F)cc1)CS(=O)(=O)C2 | 3 | -9% | -4.0% | 0% |
| CN(C(=O)COn1nnc2ccc(Cl)cc21)C1CCS(=O)(=O)C1 (centres undefined) | . | 12% | 0.8% | . |
| Cn1c(SCCC#N)nnc1-c1ccccc1F | -1 | 1% | 3.1% | -2% |
| CCc1ccc(C(=O)/C=C2\Sc3ccccc3NC2=O)cc1 | -23 | 13% | 3.6% | -30% |

Not all compounds are listed; the hit share may differ from the screen's.
